Screens as filed in PubChem BioAssay.
Vaccinia Venus: vaccinia inhibition (Venus reporter); Vaccinia virus Venus reporter expression, fluorescence; Potency, µM (top dose mostly 36.5 µM), for the others: at the top dose activity change, negative = inhibition, usual class: inhibitors; actives 0.46% (n = 330,000); AID 720580; active means well fitted inhibition curve with a large enough effect; inconclusive means small, poorly fitted or top-dose-only effect; inactive means no such curve, though single readings can be large or run the other way; tested in A549 cells; note: nearly all actives have a fitted effect of over 30% in size; inactives centre near -10
Vaccinia mCherry: vaccinia inhibition (mCherry reporter); actives 0.63% (n = 310,000); Vaccinia virus mCherry reporter infection, fluorescence; about a quarter of the inactives have no number; Potency, µM (titrated, usually from 36.5 µM), inactives show at the top dose activity change, negative = inhibition, hits mostly inhibitors; active = well fitted inhibition curve with a large enough effect; inconclusive = small, poorly fitted or top-dose-only effect; inactive = no such curve, though single readings can be large or run the other way; tested in A549 cells; note: nearly all actives have a fitted effect of over 35% in size; inactives centre near -10
* hit, by the source's call; i = inactive; ? = inconclusive; nt = not tested or not shown; & = joins results of further samples; [ ] = another dose, or the depositor's remark. % is set by controls: 0 for no effect and ±100 for the full control effect; potency is the fitted concentration of half-maximal effect. Random draw from the library; 0.87% or so of the library scored in one or more.

SMILES	Vaccinia Venus	Vaccinia mCherry
COc1cccc(CNC(=O)C2CCN(S(=O)(=O)c3ccc4c(ccn4C)c3)CC2)c1	-14%	-17%
CCOc1ccc(OCC)c(NS(=O)(=O)c2c(C(=O)N3CCC(C)CC3)c(C)n(C)c2C)c1	-2%	-14%
COc1ccc2oc(=Nc3cccc(F)c3)c(C(N)=O)cc2c1	-23%	-26%
CCNCCC(=O)N1c2ccccc2Sc2ccc(C(F)(F)F)cc21	-23%	-28%
COCCNC(=O)C1(C)CCCN(Cc2c(C)nn(-c3ccccc3)c2C)C1 (centres undefined)	-5%	19%
O=S(=O)(c1cnc2ccccc2c1)N1CCN(c2nc(-c3cccs3)nc3ccccc23)CC1	-6%	i
NC(=O)COC(=O)[C@H](Cc1c[nH]c2ccccc12)NC(=O)c1ccc(F)cc1	-7%	-1%
CC(C)c1c(C(=O)N2CCCCC2c2cccnc2)cnn1-c1nccc(-c2cccs2)n1 (centres undefined)	-20%	?
O=C1Nc2cc(C(=O)N3CCN(Cc4ccccc4)CC3)ccc2SC1N1CCOCC1 (centres undefined)	-18%	nt
CC(C)(C)C(=O)NCc1ccc(C(=O)CN2C(=O)NC3(CCCC3)C2=O)s1	-21%	i
Cc1ccc(S(=O)(=O)n2nc(-c3ccco3)nc2NCc2ccccc2Cl)cc1	-14%	-13%
O=C(NCc1cccnc1)c1cc2nc(-c3cccs3)cc(C(F)(F)Cl)n2n1	-12%	i
CCc1cc(SC#N)ccc1N	-13%	-7%
c1ccc(CN(Cc2ccccc2)C(c2ccnc3ccccc23)c2nnnn2-c2ccc3c(c2)OCCO3)cc1 (centres undefined)	-16%	-23%
CCOC(=O)[C@]12Cc3c(cc(OC)c(OC)c3OC)[C@H]1N(C)C(=O)c1cc(OC)ccc12	-28%	-23%
COc1ccc(N2C(=O)CSC23CCC(C(C)(C)C)CC3)cc1 (centres undefined)	-6%	-18%
CC1(C)CC(=O)C2=C(C1)Nc1ccccc1[S@]2=O	-1%	i
O=C(COc1ccc([N+](=O)[O-])cc1)Nc1ccc(NC(=O)c2ccccc2)cc1	-2%	-14%
CCOC(=O)c1ccc(NC(=S)N(CCCN2CCCC2)Cc2ccco2)cc1	-16%	i
Cc1ccc(C(C)C)c(OCC(=O)Nc2cccc(-c3nc4ncccc4o3)c2)c1	-7%	5%
COc1cc(/C=N/n2c(-c3cc(C)[nH]n3)n[nH]c2=S)cc(OC)c1OC	-10%[7.34 µM]	i[7.34 µM]
COc1ccc(CN(C(=O)c2ccco2)c2ccccc2)cc1	-9%	nt
O=C(Cc1ccc2c(c1)OCO2)N1CCOc2ccc(CN3CCOCC3)cc2C1	12%	-3%
COC(=O)c1ccccc1NC(=O)CCC(=O)N1CCOc2ccccc21	-7%	-4%
COc1ccccc1NC(=O)C1Cc2ccccc2CN1C(=O)c1ccco1 (centres undefined)	5%	-12%

Following part.
SMILES	Vaccinia Venus	Vaccinia mCherry
CC/C(Cc1ccccc1)=N/NC(=O)c1cccc(Br)c1	-1%	i
O=C(CCCN1C(=O)C2CC=CCC2C1=O)Nc1cccc(F)c1 (centres undefined)	-12%	i
CCC(C)N(C(=O)COC(=O)c1cc([N+](=O)[O-])ccc1N)C1CCS(=O)(=O)C1 (centres undefined)	-11%	-17%
CCOC(=O)c1ccc(NC(=O)CC2C(=O)N(c3ccc(F)cc3)C(=O)N2Cc2ccc(C)cc2)cc1 (centres undefined)	-12%	-6%
Cc1ccc(N2CC(C(=O)NCCc3ccc(S(N)(=O)=O)cc3)CC2=O)cc1 (centres undefined)	-16%	-15%
COc1ccc(N2CCN(C3CCCCC3NS(=O)(=O)c3ccccc3)CC2)cc1 (centres undefined)	-7%	?
Cc1nn(C)c(C)c1/C=C(\C#N)S(=O)(=O)c1ccc(F)cc1	-8%	-20%
CCCCN(CC)C(=O)C1CCCN(S(=O)(=O)c2cccc3nsnc23)C1 (centres undefined)	-23%	-3%
Cc1nn(C(=O)c2ccco2)c(C)c1Sc1ccc(Br)cc1	7%	i
Cc1cccnc1NC(=O)c1cc2c(=O)oc3ccccc3c2s1	-12%	i
CSCC(=O)N1CCC(n2nccc2NC(=O)CCCc2ccccc2)CC1	-15%	i
COc1ccc(NC(=O)CC(C)S(=O)(=O)c2ccc3c(c2)NC(=O)CO3)cc1OC (centres undefined)	-6%	-3%
CCCC(=O)Nc1ccc(N2CCN(C(=O)c3ccccc3C)CC2)cc1	-4%	nt
O=C1CSCC(=O)N1c1ccccc1	-9%	-9%[1.46 µM]
C=CCN(c1ccccc1)S(=O)(=O)c1ccc2c(c1)NC(=O)C(C)C(=O)N2 (centres undefined)	-8%	i
O=C(CN1C(=O)COc2ccccc21)Nc1ccc2c(c1)OCCO2	-9%	-13%
Cc1nnc(SCc2ccccc2)n1N	9%	-2%
O=C(Nc1ccc(Cc2ccncc2)cc1)c1cccs1	-4%	2%
COc1ccc(S(=O)(=O)N2CCC(C(=O)Nc3ccc(OC)c(OC)c3)CC2)cc1C	-14%	i
Cc1cc2c(c(-c3cnccn3)c1)OC(CNC(=O)C1CCCN(C)C1)C2 (centres undefined)	4%	-9%
CCOC(=O)c1[nH]c2ccc(OC)cc2c1NC(=O)NC(C)C	-9%	nt
C=CCn1c(CCCOc2ccc(Cl)cc2Cl)nnc1SCC(=O)Nc1nccs1	-22%	?
CCCCC[C@H](C)N1C[C@H](COCc2ccccc2)Oc2cc(N3CC[C@@H](N(C)C)C3)ccc2S1(=O)=O	-16%	-14%
Cc1ccccc1C(=O)Nc1ccc2nc(SCC(=O)N(C)c3ccccc3)sc2c1	?	?
CCOCCCN(CC(=O)NC1CCCC1)C(=O)C(=O)Nc1ccc2c(c1)OCCO2	-10%	-18%

Looked up by compound from the list above, two records:
SMILES	Vaccinia Venus	Vaccinia mCherry
CCCCN(CC)C(=O)C1CCCN(S(=O)(=O)c2cccc3nsnc23)C1 (centres undefined)	-23%	-3%
Cc1nn(C)c(C)c1/C=C(\C#N)S(=O)(=O)c1ccc(F)cc1	-8%	-20%

A draw from above in order of formula weight, lowest first:
SMILES	Vaccinia Venus	Vaccinia mCherry
CCCC(=O)Nc1ccc(N2CCN(C(=O)c3ccccc3C)CC2)cc1	-4%	nt
Cc1cc2c(c(-c3cnccn3)c1)OC(CNC(=O)C1CCCN(C)C1)C2 (centres undefined)	4%	-9%
C=CCN(c1ccccc1)S(=O)(=O)c1ccc2c(c1)NC(=O)C(C)C(=O)N2 (centres undefined)	-8%	i
CSCC(=O)N1CCC(n2nccc2NC(=O)CCCc2ccccc2)CC1	-15%	i
CCCCN(CC)C(=O)C1CCCN(S(=O)(=O)c2cccc3nsnc23)C1 (centres undefined)	-23%	-3%
COc1ccc(S(=O)(=O)N2CCC(C(=O)Nc3ccc(OC)c(OC)c3)CC2)cc1C	-14%	i
C=CCn1c(CCCOc2ccc(Cl)cc2Cl)nnc1SCC(=O)Nc1nccs1	-22%	?

More results:
SMILES	Vaccinia Venus	Vaccinia mCherry
Cc1cccnc1NC(=O)c1ccc(C(=O)c2ccccc2)cc1	-3%	-11%
Cc1cc(C)n2nc(SCC(=O)N(C)C)nc2n1	-16%	nt
CC(=O)c1c(C)n(-c2cccc(C)c2)c2ccc(OC(=O)COc3ccccc3)cc12	-1%	-12%
CC(C)(C)N1C(=O)c2c(C(=O)OCc3ccccc3)[nH]c(-c3ccccc3)c2C1=O	-3%	i
COc1ccc(NC(=S)NC(NC(=O)c2cccc(Cl)c2)C(Cl)(Cl)Cl)c([N+](=O)[O-])c1 (centres undefined)	?	?
O=C(c1ccccc1)C(Cn1cncn1)C(Sc1ccccc1)c1ccccc1 (centres undefined)	-20%	nt
CCOc1ccc2[nH]c(=O)c(CN(CCO)C(=O)CC)cc2c1	-19%	?
CSCc1c(C(=O)Nc2ccc3c(c2)OCO3)oc2ccccc12	-6%	-27%
CCCCN1C(=O)C(CC(=O)NC2CC2)CC(C(=O)N(CC)CC)=C1C (centres undefined)	-10%	-9%
COc1ccc(C2N(c3ccc(OC)cc3)C(=S)N3CCCN23)cc1 (centres undefined)	-3%	-2%
O=C(N/C(=C\c1ccc(F)cc1)C(=O)N1CCCCCC1)c1ccccc1	-2%	i
O=C(Nc1ccc2nc(SCC(=O)N3CCCC3)sc2c1)c1cccc(Cl)c1	-23%	-14%
Cc1nnc2c(Nc3cccc(O)c3)nc3ccccc3n12	-8%	-12%
CCOC(=O)c1c(C)[nH]c(N=Nc2ccc(C)cc2C)c1C	3%	-8%
Cc1cc(C(F)(F)F)c2c(N)c(C(=O)Nc3c(Cl)cccc3Cl)sc2n1	-14%	-4%
CCc1ccccc1NC(=O)CCc1nc(-c2ccc(C)cc2)no1	21%	-6%
COc1ccccc1NC(=O)c1cnc(SCC(=O)NCCc2ccccc2)n(C)c1=O	-11%	-15%
Cc1cn([C@H]2C[C@H](O)[C@@H](COS(=O)(=O)O)O2)c(=O)[nH]c1=O	-10%	i
Cc1sc2ncn(CC(=O)NCCCC(=O)NCc3ccc(F)cc3)c(=O)c2c1C	-12%	-20%
COc1cccc(CNC(=O)N2CCN(c3ccccc3Cl)CC2)c1	-2%	-4%
N#CCCN(C(=O)c1ccc2c(=O)n3c(nc2c1)CCCCC3)c1ccccc1	-1%	-4%
CCN(Cc1ccccc1)C(=O)c1cc2c(s1)-c1c(C)cccc1OC2	-8%	-16%
CCC(C)NC(=O)c1ccc([N+](=O)[O-])c(Cl)c1 (centres undefined)	0%	-6%
Cc1ccc(-c2nnc(SCCOc3ccccc3)o2)cc1	-7%	11%
Cc1cc[n+](-c2[nH]c(=O)sc2/C=N/N=C(\[O-])c2ccccc2)cc1C	5%	-8%

Given as labelled records: part of the list above
Compound: CC(C)c1c(C(=O)N2CCCCC2c2cccnc2)cnn1-c1nccc(-c2cccs2)n1 (centres undefined)
  Vaccinia Venus = -20% | Vaccinia mCherry = ?

Compound: O=C1Nc2cc(C(=O)N3CCN(Cc4ccccc4)CC3)ccc2SC1N1CCOCC1 (centres undefined)
  Vaccinia Venus = -18% | Vaccinia mCherry = nt

(more compounds)
SMILES	Vaccinia Venus	Vaccinia mCherry
CC1CCCCC1NCC(=O)Nc1ccccc1C(=O)Nc1ccccc1 (centres undefined)	-9%	0%
Cc1nnc(NC(=O)CSc2nc3c([nH]c4ccccc43)c(=O)n2-c2ccc(Cl)cc2)s1	-26%	?
COc1ccc(NC(=O)c2ccc3c(c2)OCO3)cc1Cl	-14%	-5%
C=CCn1c(-c2ccoc2)n[nH]c1=S	-8%	-4%
CCN(CC(=O)Nc1ccccc1OC)C(=O)CN1C(=O)NC(C)(c2ccccc2)C1=O (centres undefined)	-10%	-9%
O=S1(=O)N=C(N(CCO)/N=C/c2ccccc2F)c2ccccc21	-10%	?
CCCCN(C)c1nnc(NC(=O)Nc2ccc(Br)c(C)c2)s1	-15%	-3%
C=CCNC(=O)/C(C#N)=C/c1cn(-c2ccccc2)nc1-c1ccc(OC)c([N+](=O)[O-])c1	-4%	-12%
Cc1ccc(N=Cc2cccc(O)c2O)c(C)c1	8%	-5%
CC(=O)NCCn1c(SCC(=O)NCCc2ccc(S(N)(=O)=O)cc2)nc2ccccc2c1=O	-4%	-2%
COc1ccc[n+](CC(=O)c2ccc(F)cc2)c1	-7%	-16%
O=S1(=O)[C@H]2C[C@@H]3C=C[C@@]2(CN1Cc1cccc(C(F)(F)F)c1)O3	?	-19%&-19%
Cc1cccc(NC(=S)NCC23C=CC(O2)C2C(=O)N(c4ccc(Cl)cc4)C(=O)C23)c1 (centres undefined)	-22%	i
CN1CCC(N(C)C(=O)c2cccc(S(=O)(=O)N3CCc4ccccc43)c2)CC1	-5%	-8%
